Screening results (PubChem BioAssay)
HNF4A DNA FP: change in binding of human HNF4 alpha to DNA | P41235 | actives 0.3% (n = 360,000) | HNF4a-FITC DNA binding, fluorescence polarization, 1 h | activity change, % at 10 µM; in the data active = activity change above about 30%, passing the limit was not always enough;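 also: controls were the assay level and a saturating level of protein; the project sought stronger binding though the title names inhibitors; some compounds called inactive have numbers as strong as hits; positive values seem to mean higher polarization but the record does not say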
Target sequence (P41235 whole entry, looked up): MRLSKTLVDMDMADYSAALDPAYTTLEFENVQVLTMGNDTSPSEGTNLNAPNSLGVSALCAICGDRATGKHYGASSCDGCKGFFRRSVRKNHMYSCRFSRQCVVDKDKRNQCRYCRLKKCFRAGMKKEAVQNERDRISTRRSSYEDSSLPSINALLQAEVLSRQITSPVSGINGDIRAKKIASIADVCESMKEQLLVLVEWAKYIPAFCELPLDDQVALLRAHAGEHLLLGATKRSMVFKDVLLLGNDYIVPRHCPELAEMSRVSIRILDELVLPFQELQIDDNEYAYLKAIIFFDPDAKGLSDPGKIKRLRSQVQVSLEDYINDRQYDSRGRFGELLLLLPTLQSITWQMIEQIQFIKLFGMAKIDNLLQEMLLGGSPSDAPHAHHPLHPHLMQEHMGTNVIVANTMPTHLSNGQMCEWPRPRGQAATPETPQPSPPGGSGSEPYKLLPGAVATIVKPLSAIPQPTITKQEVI
FGF22 binding: shifts melting point of recombinant human FGF22. Q9HCT0. recombinant FGF22 thermal shift, SYPRO orange fluorescence; percent of sucrose octasulfate shift, DMSO zero. calls only at 9.99 µM. actives 1.5% (n = 340,000);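 active = melting point raised past a set limit in the mean and every replicate; three in four hits are not shown here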
Target sequence (Q9HCT0 whole entry, looked up): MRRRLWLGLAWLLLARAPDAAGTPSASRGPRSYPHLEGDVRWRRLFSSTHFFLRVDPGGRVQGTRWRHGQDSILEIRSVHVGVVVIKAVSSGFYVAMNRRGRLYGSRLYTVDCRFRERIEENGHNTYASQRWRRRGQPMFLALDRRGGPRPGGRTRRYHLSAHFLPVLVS
The depositor's hits bear a star; i = inactive; + = active, no number; & = joins results of further samples. Not all compounds are listed; count on the stated rates, not on these rows.

nr | HNF4A DNA FP | FGF22 binding | structure
1 | -2.6 | i | O=C(Nc1c(-c2ccccc2)[nH][nH]c1=O)c1ccc(-c2ccccc2)cc1
2 | -0.8 | i | C#CCN(C[C@@H]1[C@@H](OC(=O)NCc2ccc(OC)c(OC)c2)[C@@H](OC(=O)NCc2ccc(OC)c(OC)c2)Cn2c(=O)ccc(=O)n21)S(=O)(=O)c1ccc(C)cc1
3 | 2.2 | i | CCNC(=O)C1(C)CCCN1Cc1ccccc1Cl (stereo unspecified)
4 | -0.6 | i | CC(C)=C(c1ccc(Cl)cc1)c1c(N)ncnc1N
5 | -0.9 | i | CC1(C(=O)NS(=O)(=O)c2ccccc2)CCN1C(=O)c1cccc2ccccc12 (stereo unspecified)
6 | -1.2 | i | COc1cnc(-c2cccc(C(F)(F)F)c2)c(NC(=O)c2cc3ccccc3s2)n1
7 | 6.9 | i | Clc1cccc(Cc2c(-c3ccccc3)nc3ccc(Cl)cn23)c1
8 | 3.9 | i | CCOc1ccc(Cl)cc1-c1cc(C(=O)NCCOC)[nH]n1
9 | 1.5 | i | CCOC(=O)c1ccc(NC(=O)Nc2nc3ccccc3s2)cc1
10 | 5.5 | i | CCCNC(=O)C1(C)CCN(C(=O)c2ccc(F)c(Cl)c2)C1 (stereo unspecified)
11 | -2.7 | i | O=C1NC[C@H](CCCCN2CCN(CC3CCCCC3)C(=O)C2=O)N(Cc2ccccc2)C1=O
12 | 0.9 | i | O=C(O)C1CCN(S(=O)(=O)c2ccc3[nH]ccc3c2)CC1
13 | 0.4 | i | COc1ccccc1CCC(=O)NNC(=O)Cn1nc(C)cc1C
14 | 1.5 | i | Cn1c(Cc2ccccc2)nc(=O)c2ccccc21
15 | 8.0 | i | COc1ccc(S(=O)(=O)N(C)C)cc1NC(=O)COC(=O)c1n[nH]c2ccccc12
16 | 1.2 | i | CCc1nc2ccc(C(=O)NCCN3CCNC3=O)cn2c1N(C)Cc1ccc(OC)cc1
17 | 2.4 | i | CC1(C(=O)Nc2ccc(Cl)cc2)Cc2c(-c3cccc(C(N)=O)c3)ccnc2O1 (stereo unspecified)
18 | 1.3 | i | CC1(C(=O)Nc2cccc3c2CCCC3)CCN1C(=O)c1cccc(F)c1 (stereo unspecified)
19 | -0.6 | i | O=C(CC[C@H]1O[C@@H](n2ccc(=O)[nH]c2=O)[C@H](O)[C@@H]1O)NCCc1c[nH]c2ccccc12
20 | -0.1 | i | COc1ccc(OC)c(NC(=O)C2(C)CCN2Cc2cccc(OC)c2OC)c1 (stereo unspecified)
21 | 11 | i | COc1ccccc1Cc1c(-c2ccc(Cl)cc2)nc2c(C)cc(Br)cn12
22 | 8.4 | i | O=C(NCc1ccc(Br)cc1)OC1CC2CC1[C@H]1CCCCN1C2=O (stereo partly specified)
23 | 5.8 | i | CCCc1nc2ccc(C)cn2c1Cc1ccc(OC)cc1C
24 | 1.4 | i | Cc1ccc(Cn2cc(CN3CC(N4CCN(Cc5cccc(C)c5)CC4)CS3(=O)=O)nn2)cc1 (stereo unspecified)
25 | -2.4 | i | CC1=C(C(=O)N(C(C)C)C(C)C)CC(CC(=O)NC(c2ccccc2)c2ccccc2)C(=O)N1Cc1ccc(F)cc1 (stereo unspecified)
26 | 5.4 | i | COC(=O)c1cccc(OCCCN2CCC(C(O)(c3ccccc3)c3ccccc3)CC2)c1
27 | 2.3 | i | CC(C)CCNC(=O)C1(C)CCN1Cc1ccc2ccccc2c1 (stereo unspecified)
28 | -0.1 | i | O=C(Nc1ccc2c(c1)OCO2)c1cc(C2CCCCN2C(=O)OCCF)on1 (stereo unspecified)
29 | -4.3 | i | O=C(/C=C/[C@H]1O[C@@H](n2cnc3c(NC(=O)c4ccccc4)ncnc32)[C@H](O)[C@@H]1O)NCC(c1ccccc1)c1ccccc1
30 | -0.4 | i | COc1cccc(-c2cccc3c2NC(=O)C3(C)Cc2ccccc2F)c1 (stereo unspecified)

Entries of single compounds as entered above.
`CC(C)CCNC(=O)C1(C)CCN1Cc1ccc2ccccc2c1` (stereo unspecified) reads HNF4A DNA FP: 2.3; FGF22 binding: i
`COc1ccccc1Cc1c(-c2ccc(Cl)cc2)nc2c(C)cc(Br)cn12` reads HNF4A DNA FP: 11; FGF22 binding: i
`CCCc1nc2ccc(C)cn2c1Cc1ccc(OC)cc1C` reads HNF4A DNA FP: 5.8; FGF22 binding: i

Back to the main list with the 2 entries that preceded the break.
nr | HNF4A DNA FP | FGF22 binding | structure
29 | -4.3 | i | O=C(/C=C/[C@H]1O[C@@H](n2cnc3c(NC(=O)c4ccccc4)ncnc32)[C@H](O)[C@@H]1O)NCC(c1ccccc1)c1ccccc1
30 | -0.4 | i | COc1cccc(-c2cccc3c2NC(=O)C3(C)Cc2ccccc2F)c1 (stereo unspecified)
31 | 2.1 | i | Cc1ccc(CNC(=O)[C@H]2O[C@@H](n3ccc(N)nc3=O)[C@H](O)[C@@H]2O)o1
32 | 3.3 | i | CCC1CCCCN1C(=O)COC(=O)c1cncc(Br)c1 (stereo unspecified)
33 | -1.8 | i | COc1ccc(-c2ccc(CN3C(C)C(=O)N(Cc4cn(Cc5ccco5)nn4)CCS3(=O)=O)cc2)cc1 (stereo unspecified)
34 | -2.3 | i | C[C@@H]1CN([C@H](C)CO)S(=O)(=O)c2ccc(C#Cc3ccccc3F)cc2O[C@H]1CN(C)C(=O)c1ccc2c(c1)OCO2
35 | 2.4 | i | O=C(CC[C@H]1O[C@@H](n2ccc(=O)[nH]c2=O)[C@H](O)[C@@H]1O)NC1CCN(Cc2ccccc2)C1 (stereo partly specified)
36 | 1.1 | i | CC(=O)Nc1cccc(-c2csc(C(O)c3ccc(F)c(F)c3)n2)c1 (stereo unspecified)
37 | -3.0 | i | Cc1ccc(F)cc1C(=O)N1CCC1(C)C(=O)O (stereo unspecified)
38 | 2.1 | i | Cc1cn([C@H]2C[C@H](O)[C@@H](CNC=O)O2)c(=O)[nH]c1=O
39 | 1.2 | i | CCCCCCn1c(=O)n2n(c1=O)[C@@H]1CN(S(=O)(=O)c3ccc(C)cc3)C[C@]1(O)[C@@H](OC(=O)NCC1CCCCC1)C2
40 | -2.6 | i | COc1ccc(C(C)(NC(C)=O)c2nc(-c3ccc(F)cc3OC)cs2)cc1 (stereo unspecified)
41 | -4.0 | i | O=C(O)c1ccc(C(S(=O)(=O)c2ccccc2)S(=O)(=O)c2ccccc2)cc1
42 | -4.2 | i | CC(=O)OC(C(=O)Nc1nncs1)c1ccccc1 (stereo unspecified)
43 | 0.2 | i | CC(=O)Nc1ccc(NC(=O)C2(C)Cc3c(-c4ccc5c(c4)OCO5)ccnc3O2)cc1 (stereo unspecified)
44 | 1.8 | i | COc1cc2ccc(CC(=O)O)cc2cc1OC
45 | 1.1 | i | C[C@H]1CN([C@@H](C)CO)C(=O)CCCn2cc(nn2)CO[C@@H]1CN(C)C(=O)Nc1ccc2c(c1)OCCO2
46 | 0.9 | i | CCNC(=O)C1(C)CCCN1C(=O)c1cc(OC)c(OC)c(OC)c1 (stereo unspecified)
47 | 3.1 | i | CN(C)c1ccc(-c2ccnc3c2CC(C)(C(=O)Nc2cccc(Oc4ccccc4)c2)O3)cc1 (stereo unspecified)
48 | -1.0 | i | Cc1cccc(NC(=O)CSCC(=O)Nc2cc(C(F)(F)F)ccc2N2CCOCC2)c1
49 | 2.2 | i | COc1ccc(OC)c(NC(=O)C2(C)CCN2Cc2ccccc2OC(F)F)c1 (stereo unspecified)
50 | 3.7 | i | O=c1[nH]c(=S)[nH]c2c1C(c1ccccc1)OC(C1CCCCC1)C2 (stereo unspecified)
51 | 0.0 | i | c1ccc(COc2cccc(-c3cc4nc(NCc5ccc6c(c5)OCO6)ccn4n3)c2)cc1
52 | 1.7 | i | Cc1c(Cl)cccc1NC(=S)NC(=O)c1ccccc1
53 | 1.7 | i | CC1=C(C(=O)N2CCOCC2)CC(CC(=O)NC(c2ccccc2)c2ccccc2)C(=O)N1CCC1=CCCCC1 (stereo unspecified)
54 | -1.3 | i | CCOC(=O)c1cc(OCC)c2c(ccc3cc(OC)ccc32)n1
55 | -3.9 | i | O=c1c(-c2cccnc2)nc2ccccc2n1C(CCc1ccccc1)c1nc2ccccc2[nH]1 (stereo unspecified)
56 | -0.7 | + | CC(=O)Nc1ccc(NC(=O)CSc2nnc(NC(=O)c3ccccc3F)s2)cc1
57 | 1.3 | i | CC1(C(=O)NS(=O)(=O)c2ccccc2Cl)CCN1C(=O)C1(c2ccccc2)CCCC1 (stereo unspecified)
58 | 3.2 | i | COc1ccccc1C(=O)N1CCCC(C)(C(=O)NS(=O)(=O)C2CC2)C1 (stereo unspecified)
59 | 0.9 | i | Cc1ccc(NC(=O)c2ccc(OCC3CCCO3)cc2)cc1Cl (stereo unspecified)
60 | -0.7 | i | O=C1Nc2ccccc2N=C(c2ccc3c(c2)OCO3)C1N(C(=O)c1ccnc2ccccc12)c1ccccc1 (stereo unspecified)
61 | -5.4 | i | CC1(C(=O)NCc2ccccc2Br)CCN1Cc1c(F)cccc1F (stereo unspecified)
62 | 5.3 | i | CCC[C@H]1CN(c2ccccc2)C(=O)[C@@H]1CC(=O)Nc1ccc(Br)cc1
63 | 1.7 | i | CCCCC(=O)N(C)c1c(C)nc2ccc(C(=O)N3CCN(S(=O)(=O)CC)CC3)cn12
64 | -0.5 | i | OC[C@@H]1CN(Cc2ccccc2)C[C@H](n2cnc3c(NCc4ccc(F)cc4)ncnc32)O1
65 | -2.6 | i | COc1ccc(COC(=O)CCCN=C2NS(=O)(=O)c3ccccc32)cc1F
66 | 1.1 | i | CCOc1ccc(Cl)cc1-c1cc(C(=O)Nc2cc(OC)c(OC)c(OC)c2)[nH]n1
67 | 1.3 | i | Cc1nc2c(OCc3ccc(C#N)cc3)cccn2c1N(C)C(=O)CCC1CCCC1
68 | 3.3 | i | COc1ccc(NC(=O)N[C@H]2CC[C@@H](CC(=O)NC3CCC3)O[C@@H]2CO)cc1
69 | -3.1 | i | C[C@@H]1CC[C@H](Cc2ccc(-n3cccc3)cc2)N1C(=O)OC(C)(C)C
70 | -0.9 | i | CCOc1ccc(S(=O)(=O)c2ccc(C)cc2)c2c1no[n+]2[O-]
71 | 2.2 | i | O=C(Nc1cccc2cccnc12)c1csc([C@@H]2O[C@H](CO)[C@H](O)[C@H](O)[C@H]2O)n1
72 | 0.8 | i | COC(=O)[C@@]12C[C@@H](CC(=O)NCCCCc3ccccc3)C(=O)N(Cc3ccco3)C1=CCC(C)(C)C2
73 | -6.8 | i | CC1(c2cccc(Br)c2)NC(=O)N(CC(=O)Nc2ccc(N3CCCCC3)cc2)C1=O (stereo unspecified)
74 | 2.2 | i | CC1(C(=O)Nc2cnc3ccccc3c2)CCN1Cc1ccc(OC(F)(F)F)cc1 (stereo unspecified)
75 | -0.8 | i | O=C(Nc1ccccc1Cl)Nc1ccnn1C1CCN(C(=O)C2CCOC2)CC1 (stereo unspecified)
76 | 4.7 | i | COc1ccccc1S(=O)(=O)N(C)C[C@@H]1OCc2cnnn2CCCC(=O)N([C@@H](C)CO)C[C@H]1C
77 | 0.1&3.9 | i | O=C(C(=O)N1CCC(Cc2ccccc2)CC1)c1ccccc1
78 | 1.8 | i | O=C(NCC(F)(F)F)c1[nH]c(C(F)(F)F)nc1-c1ccccc1
79 | -0.7 | i | O=S1(=O)CC(N2CCCC2)CN1Cc1ccccc1 (stereo unspecified)
80 | -4.0 | i | COc1ccc(C(=O)N(C)[C@H]2C[C@H]3c4[nH]c5ccccc5c4CCN3C(=O)[C@H]2CO)cc1
81 | 1.4 | i | COc1ccc(S(=O)(=O)NCc2ccc(C(=O)NCCN(C)Cc3ccccc3)cc2)cc1
82 | 0.8 | i | COc1cccc(NC(=O)C2(C)CCN2C(C)C)c1OC (stereo unspecified)
83 | 2.3 | i | OC(c1ccccc1)(c1ccccc1)C1CCN(CCCOc2ccccc2)CC1
84 | -0.9 | i | CC(C)C1C(=O)N(Cc2cn(CCC3OCCCO3)nn2)CCS(=O)(=O)N1Cc1ccc(-c2ccncc2)cc1 (stereo unspecified)
85 | -1.6 | i | Cc1ccc(S(=O)(=O)N2C[C@H]3n4c(=O)ccc(=O)n4C[C@H](OC(=O)NC4CCCC4)[C@@]3(O)C2)cc1
86 | 8.9 | i | COC(=O)c1ccc2nc(-c3cccc(Cl)c3)c(Cc3cccc(F)c3)n2c1
87 | 11 | i | COc1cccc(-c2cnc3c(NC(C)=O)cc(-c4cccc(NC(C)=O)c4)cn23)c1
88 | -3.5 | i | CSc1ccccc1C(=O)N1CCc2ccc(NC(=O)c3ccccn3)cc2C1
89 | 0.9 | i | Cc1noc(C)c1S(=O)(=O)N(C)C[C@H]1OCc2cn(nn2)CCCC(=O)N([C@H](C)CO)C[C@@H]1C
90 | 1.4 | i | Cc1ccsc1C(=O)N1CCC1(C)C(=O)NS(=O)(=O)c1ccc(Br)cc1 (stereo unspecified)

The list goes on.
nr | HNF4A DNA FP | FGF22 binding | structure
91 | 1.4 | i | CC(=O)Nc1ccc2cnn(C(C)=O)c2c1
92 | -1.4 | i | CCc1cc(-c2nnn(-c3cc(C(C)C)ccc3C)c2CC)ccc1-c1cn(CCc2c[nH]c3ccccc23)nn1
93 | -1.3 | i | Cc1cc(C)cc(CC(=O)N2CCC2(C)C(=O)NS(=O)(=O)c2ccc(Cl)s2)c1 (stereo unspecified)
94 | -2.7 | i | O=C(OCc1ccccc1)N1CCC2CC1c1ccc(N3CCN(Cc4ccc5c(c4)OCO5)CC3)cc12 (stereo unspecified)
95 | -0.7 | i | CCOc1ccc(-c2cc(C(=O)NCc3ccccc3)[nH]n2)c(C)c1
96 | -1.0 | i | OC[C@@H]1CN(Cc2ccc(F)cc2)C[C@H](n2cnc3c(NCc4ccc(F)cc4)ncnc32)O1
97 | 13 | i | COc1ccc(C(C(=O)Nc2ccc3c(c2)OCCO3)n2c(=O)c(-c3ccco3)nc3ccccc32)cc1 (stereo unspecified)

Pulled by structure from the entries so far, 2 records:
nr | HNF4A DNA FP | FGF22 binding | structure
39 | 1.2 | i | CCCCCCn1c(=O)n2n(c1=O)[C@@H]1CN(S(=O)(=O)c3ccc(C)cc3)C[C@]1(O)[C@@H](OC(=O)NCC1CCCCC1)C2
75 | -0.8 | i | O=C(Nc1ccccc1Cl)Nc1ccnn1C1CCN(C(=O)C2CCOC2)CC1 (stereo unspecified)
